Source: PubChem
Mtb betalactam: beta-lactam sensitization of Mtb H37Rv. hit rate 0.27% among 330,000. inhibition, % at 25 µM. M. tuberculosis H37Rv growth with meropenem, percent inhibition; hits of this screen are not shown here;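 active = about 74% or more and at least 40 points above the plate without the antibiotic, then above 30% in a dose series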;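 note: growth measured after seven days incubation then overnight dye step; 0% = bacteria only wells and 100% = bacteria with antibiotic; twin plates without the antibiotic show which effects depend on it; some results filed as inactive read as strong as hits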
YopH inh: blocks Yersinia enterocolitica YopH tyrosine phosphatase; fluorescence Ex485/Em525; inhibition, %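 (about 10 µM by stock and volumes)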; hit rate 0.16% among 140,000;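 active = inhibition of 50% or more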;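 note: controls were vehicle for no effect and minimum signal wells for full effect; inactives centre near -20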
RecA intein inh: Mtb RecA intein splicing inhibition; cell-free RecA intein splicing, fluorescence; P9WHJ3; AID 2221; hit rate 0.75% among 290,000; inhibition, %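 (about 9 µM by stock and volumes)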; in the data active = inhibition above about 30%;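 note: 0% = vehicle wells and 100% = reference inhibitor control wells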
Target sequence (P9WHJ3 whole entry, looked up): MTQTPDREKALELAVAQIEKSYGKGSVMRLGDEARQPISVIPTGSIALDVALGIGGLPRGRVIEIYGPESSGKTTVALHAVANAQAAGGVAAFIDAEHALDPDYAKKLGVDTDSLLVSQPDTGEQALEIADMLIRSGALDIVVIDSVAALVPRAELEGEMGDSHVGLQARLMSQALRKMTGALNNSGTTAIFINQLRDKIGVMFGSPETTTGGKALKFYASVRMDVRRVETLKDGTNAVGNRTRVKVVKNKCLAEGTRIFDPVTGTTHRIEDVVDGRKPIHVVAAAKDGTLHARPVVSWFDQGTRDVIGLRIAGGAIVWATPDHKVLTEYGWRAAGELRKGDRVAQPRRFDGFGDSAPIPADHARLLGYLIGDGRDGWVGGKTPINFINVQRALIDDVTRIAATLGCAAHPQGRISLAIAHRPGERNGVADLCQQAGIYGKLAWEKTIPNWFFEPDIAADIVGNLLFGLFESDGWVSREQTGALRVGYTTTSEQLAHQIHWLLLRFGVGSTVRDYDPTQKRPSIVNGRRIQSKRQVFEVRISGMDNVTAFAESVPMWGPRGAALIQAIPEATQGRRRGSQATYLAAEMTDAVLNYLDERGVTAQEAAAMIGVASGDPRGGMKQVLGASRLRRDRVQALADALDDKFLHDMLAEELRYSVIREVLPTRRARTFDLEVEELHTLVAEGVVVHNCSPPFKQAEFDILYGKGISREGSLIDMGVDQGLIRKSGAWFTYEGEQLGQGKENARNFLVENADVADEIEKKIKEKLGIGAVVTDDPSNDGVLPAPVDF
Mtb H37Rv: M. tuberculosis H37Rv growth inhibitors, H37Rv strain (AID 1626). inhibition, % at 10 µM, or IC50 in µM where a hit was titrated. M. tuberculosis H37Rv growth inhibition; higher % means a stronger effect. hit rate 0.95% among 220,000;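 active = confirmed in a dose series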;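 note: bacteria incubated seven days before Alamar blue readout; 0% = bacteria only wells and 100% = bacteria with antibiotic wells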
Arbovirus anti: arbovirus infection inhibition; arbovirus infection cell-based antiviral screen; inhibition, % at 10 µM; hit rate 0.37% among 200,000; AID 1251;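 active = inhibition from about 30%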;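 note: bluetongue infection of BSR cells; cell survival read as ATP light after 72 h; 0% = infected wells without compound and 100% = uninfected wells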
Arbovirus anti repeat: also measured in Arbovirus anti; calls as there; inhibition, %; measured here: 10K subset replicate screen; many hits read low in the repeat;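 first of two repeat runs on a subset; 0% = infected and 100% = uninfected wells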
An asterisk follows results filed as active; . = not tested or not shown.

SMILES	Mtb betalactam	YopH inh	RecA intein inh	Mtb H37Rv	Arbovirus anti	others
CCn1c(Cn2nnc(-c3ccccc3)n2)nnc1SCC(=O)Nc1cccc(C(C)=O)c1	-1	-34	2.0	-8%	2
OCCN1CCN(CCCc2c3c(cc4c2CCC4)CCC3)CC1	5	-27	1.3	1%	-31
Cc1cccc(N2CCN(C(=O)c3ccc(NC(=O)C4CCCO4)cc3)CC2C)c1 (stereo not given)	-5	-32	.	-9%	-14	Arbovirus anti repeat=-9
O=C(C1COc2ccccc2O1)N1CCc2ccccc21 (stereo not given)	-4	-46	2.3	-5%	-3
CCOC(=O)N1CCN(S(=O)(=O)c2ccc(C(=O)Nc3nc4ccc(F)cc4s3)cc2)CC1	12	-16	-2.6	.	-1
O=C(NCCc1ccc(Cl)cc1)C1CCN(S(=O)(=O)c2ccc(Br)s2)CC1	6	.	-1.4	0%	-1
CN1CCN(C(=O)/C(=C/c2cn(S(=O)(=O)N(C)C)c3ccccc23)NC(=O)c2ccccc2Cl)CC1	-7	.	-0.5	.	.
CCC(=O)N1CCN=C1SCc1ccc(F)cc1	-10	-43	.	14%	-3
C=CCn1cc(C=C2C(=O)NC(=O)NC2=O)c2ccccc21	3	.	-3.4	.	.
CCN(CC)S(=O)(=O)c1ccc(Cl)c(C(=O)OC2CC(C)OC2=O)c1 (stereo not given)	-4	.	-2.5	.	.
COc1ccc(NC(=O)c2ccccc2Cl)cc1NC(=O)CN1CCOCC1	0	-6	-0.4	1%	1
COC(=O)CNC(=O)Cn1nc(C)c([N+](=O)[O-])c1C	1	.	-1.0	1%	1
N#Cc1ccccc1Cn1c(=O)n(Cc2ccc(C(=O)NCc3ccco3)cc2)c(=O)c2sccc21	-6	-26	.	-3%	-4	Arbovirus anti repeat=-6
CC(NC(=S)Nc1ccccc1Cl)C(c1cccs1)N1CCCC1 (stereo not given)	-1	-12	-1.3	7%	14
CCOC(=O)c1cc(-c2ccc([N+](=O)[O-])cc2)nc2c1c(=O)[nH]c(=O)n2Cc1ccccc1	-9	.	0.5	.	.
Cc1ccnc(NC(=O)C2CCN(S(=O)(=O)c3ccc(Cl)c(C(F)(F)F)c3)CC2)c1	3	.	-9.5	.	.
Cc1nn(C)cc1S(=O)(=O)N1CCN(Cc2cccc(Cl)c2)CC1	-7	.	0.4	-4%	-6
CC(=O)Nc1ccc(NC(=O)CN(c2cccc(C)c2)S(C)(=O)=O)cc1	6	-11	.	0%	4
COc1cc(NC(=O)CCC(=O)c2cccs2)cc(OC)c1	4	.	-0.7	.	.
O=C(c1ccccc1F)N(Cc1ccccc1)Cc1ccccc1	-5	.	10	.	.
Cc1cc(C)n(C(=O)CN(C)S(=O)(=O)c2ccc([N+](=O)[O-])cc2)n1	5	.	0.0	.	.
COc1ccc(C(=O)Nc2ccc3c(c2)nc(CCNC(C)=O)n3C)cc1	1	-9	-1.6	0%	2
C/C=N\NC(=O)COc1cc(C)ccc1C	-5	.	1.6	1%	0
OCc1nc2ccccc2n1CC(O)Cn1ccc2ccccc21 (stereo not given)	-3	-50	2.7	2%	28
CCOC(=O)N1CCN(C(=O)CCCOc2ccccc2)CC1	9	-4	3.2	-3%	8
Remaining list, next part.
SMILES	Mtb betalactam	YopH inh	RecA intein inh	Mtb H37Rv	Arbovirus anti	others
COc1ccc(C(=O)c2c[nH]c(C(=O)NCCCN3CCOCC3)c2)cc1	-6	.	-0.5	-1%	-2
CCCNS(=O)(=O)c1cc(Cl)ccc1OC	-3	.	-4.0	-5%	-7
COc1ccc(CCN(C)C2CCCN(S(=O)(=O)N(C)C)C2)cc1OC (stereo not given)	-5	.	-0.5	.	.
C=CCn1c(SCC(=O)N(CCOC)c2c(N)n(CC(C)C)c(=O)[nH]c2=O)nc2ccccc21	-10	.	0.9	.	.
CC(C)NC(=O)c1ccccc1NC(=O)/C=C/c1ccc([N+](=O)[O-])cc1	11	-55	-1.4	-4%	-7
Cc1ccc(OCC(=O)Nc2nnc(S(=O)(=O)N3CCC(C)CC3)s2)cc1	-7	.	-0.8	.	.
CCOC(=O)c1c(O)c2ccccc2n(-c2ccccc2)c1=O	9	-49	-0.1	0%	8
CCCCCC(=O)Nc1ccc(C(=O)COC(=O)Cn2cnc3c2c(=O)n(C)c(=O)n3C)cc1	1	.	-1.1	.	.
c1ccc2c(c1)CNC1(CCCCC1)C2	-11	-29	1.9	-15%	8
CC1=CC2=NC(=O)/C(=C\c3cccn3CCOc3ccccc3)C(=N)N2O1	-3	-20	-4.9	2%	-4
COCCN(Cc1ccccc1)C(=O)c1ccc2c(=O)n3c(nc2c1)CCC3	2	.	-3.9	.	.
CC(=O)c1c(C)[nH]c(C(=O)OCC(=O)Nc2cc(Cl)ccc2[N+](=O)[O-])c1C	0	-34	.	7%	8
CC1CCc2c(sc(NC(=O)CCCn3cnc([N+](=O)[O-])n3)c2C(N)=O)C1 (stereo not given)	.	.	5.0	-1%	7
COc1ccc(-c2cc(C(=O)N3CCN(c4ccccc4)CC3)no2)cc1	4	.	0.8	.	.
C/C(=N\N=C(/N)c1nonc1N)c1ccc2c(c1)OCO2	-4	.	1.5	3%	.
O=C(Nc1ccc2ccccc2c1)c1onc2c1CCCC2	-3	-58	-0.2	7%	-11
Cc1c(Cl)cccc1NC(=S)NNc1ncc(C(F)(F)F)cc1Cl	-19	-6	-3.6	-3%	-20
O=C(CC1Sc2ncnn2C1=O)Nc1ccccc1 (stereo not given)	-3	-17	-3.2	-3%	8
CN1C(=O)NC(c2ccccc2)C2=C1CN(c1ccc3ccccc3c1)C2=O (stereo not given)	-3	-39	4.0	8%	0
CCn1cc(C2=NOC(C(=O)Nc3ccc4c(c3)OCO4)C2)c(C)n1 (stereo not given)	8	-41	-0.8	-1%	0
O=C(COc1ccc(S(=O)(=O)NC2CCCCC2)cc1)NCc1ccccn1	7	-16	2.8	-3%	9
Cc1ccc(-c2noc(CCC(=O)NC3CCCC3)n2)cc1	1	.	0.3	.	.
COc1ccc(-c2nnc(SCC(=O)N3CCc4ccccc4C3)o2)cc1	96	-25	9.3	55%	3
Nc1ncccc1OCc1ccc(Br)cc1	11	.	0.5	9%	-2
CCOc1ccccc1C1C(C(=O)Nc2ccccc2OC)=C(C)Nc2nnnn21 (stereo not given)	0	-39	1.4	5%	-3

The list goes on, overlapping the part above by 6 compounds.
SMILES	Mtb betalactam	YopH inh	RecA intein inh	Mtb H37Rv	Arbovirus anti	others
CCn1cc(C2=NOC(C(=O)Nc3ccc4c(c3)OCO4)C2)c(C)n1 (stereo not given)	8	-41	-0.8	-1%	0
O=C(COc1ccc(S(=O)(=O)NC2CCCCC2)cc1)NCc1ccccn1	7	-16	2.8	-3%	9
Cc1ccc(-c2noc(CCC(=O)NC3CCCC3)n2)cc1	1	.	0.3	.	.
COc1ccc(-c2nnc(SCC(=O)N3CCc4ccccc4C3)o2)cc1	96	-25	9.3	55%	3
Nc1ncccc1OCc1ccc(Br)cc1	11	.	0.5	9%	-2
CCOc1ccccc1C1C(C(=O)Nc2ccccc2OC)=C(C)Nc2nnnn21 (stereo not given)	0	-39	1.4	5%	-3
CC(=O)N1CCOc2ccc(S(=O)(=O)N3CCC(C(=O)NCc4ccc(F)cc4)CC3)cc21	-5	.	8.8	.	.
O=C1NC(=O)C(=Cc2ccc(-c3ccc(F)cc3O)o2)C(=O)N1	22	.	-4.6	.	.
Cn1c(N)c(C(=O)COC(=O)Cc2ccsc2)c(=O)n(C)c1=O	-6	-28	0.6	-1%	22	Arbovirus anti repeat=2
COC(=O)c1cc(C(=O)Nc2ccc(S(=O)(=O)NC(C)(C)C)cc2)cc([N+](=O)[O-])c1	-5	-24	0.4	4%	1
C=CCn1c(COc2ccc(Cl)cc2)nnc1SCC(=O)N/N=C/c1cccc(O)c1	-13	-34	-1.3	-4%	-7
Cc1cc(C)n2nc(CNS(=O)(=O)c3ccc(F)c(C)c3)nc2n1	-2	.	-1.6	.	.
CC(CN1CCN(C)CC1)OC(=O)c1ccc(F)cc1 (stereo not given)	-10	.	-2.6	1%	1
Cc1oc2cc3oc(=O)c4c(c3cc2c1C)CCC4	3	14	-2.1	-7%	11
C=CCn1c(SCC#N)nc2ccccc2c1=O	4	-45	0.4	-2%	2
O=C(Nc1ccc2c(c1)C(=O)OC2)c1ccc(Cl)cc1Cl	-2	.	-1.5	.	.
CC(=O)c1sc(-c2ccccc2)cc1NS(=O)(=O)c1ccc(C)cc1	-3	.	-0.1	6%	.
CCOc1ccc(NC(=S)N2CCC(c3ccc(C)cc3)C2)cc1 (stereo not given)	4	.	-7.4	.	.
CCN(CC)C(=O)c1ccc(NS(=O)(=O)c2ccc(/C=C/C(=O)O)cc2)cc1	-13	.	-1.7	9%	24
CC(C)C(=O)Nc1ccc2c(c1)oc1ccccc12	23	-6	2.9	45%	-8
COc1ccc(S(=O)(=O)N2CCOCC2)cc1NC(=O)c1ccc2c(c1)OCCO2	4	.	-0.2	1%	0
COc1ccc(CN(C)CC(=O)Nc2ccc(N3CCOCC3)cc2)cc1OC	1	-4	-1.7	-10%	-10
COc1ccc(-c2cc(-c3ccc(OC)cc3)c(C#N)c(SC)n2)cc1	-4	-9	-4.9	-7%	-4
COc1ccc(C(=O)NN/C(=N/S(=O)(=O)c2ccc(C)cc2)c2ccccc2)cc1	5	.	2.6	-2%	.
CCCOC(=O)C1=C(C)NC(=O)NC1c1cccc2ccccc12 (stereo not given)	12	.	-2.1	.	.
O=C1NCCN(Cc2ccc(Cl)c(F)c2)C1CC(=O)N1CCCO1 (stereo not given)	-2	.	-11	-1%	-3
CCCn1cnc2cc(NC(=O)c3ccco3)ccc21	-3	.	-1.6	.	.
COc1cccc(NC(=O)[C@@H]2CCCN2C(=O)C2CCN(S(=O)(=O)c3ccc(C)cc3)CC2)c1	-6	3	-0.7	-4%	10

Filtered by structure: the entries above containing a CF3 group (2)
SMILES	Mtb betalactam	YopH inh	RecA intein inh	Mtb H37Rv	Arbovirus anti	others
Cc1ccnc(NC(=O)C2CCN(S(=O)(=O)c3ccc(Cl)c(C(F)(F)F)c3)CC2)c1	3	.	-9.5	.	.
Cc1c(Cl)cccc1NC(=S)NNc1ncc(C(F)(F)F)cc1Cl	-19	-6	-3.6	-3%	-20

These rows are one share of the data, so the mix of outcomes need not match the whole.
